Screens deposited in PubChem BioAssay by National Center for Advancing Translational Sciences (NCATS).
VDR inhibitor: inhibitors of human vitamin D receptor; AID 504847; Potency, µM, for inactives: max response, negative = inhibition, most hits filed as inhibitors; 400,000 tested, 0.93% active; P11473; VDR-SRC2-3 peptide fluorescence polarization, 2 h; active means well fitted inhibition curve with a large enough effect; inconclusive means small, poorly fitted or top-dose-only effect, or another doubt; inactive means no such curve, though single readings can be large or run the other way; further: series mostly up to about 120 µM
Target sequence (P11473 whole entry, looked up): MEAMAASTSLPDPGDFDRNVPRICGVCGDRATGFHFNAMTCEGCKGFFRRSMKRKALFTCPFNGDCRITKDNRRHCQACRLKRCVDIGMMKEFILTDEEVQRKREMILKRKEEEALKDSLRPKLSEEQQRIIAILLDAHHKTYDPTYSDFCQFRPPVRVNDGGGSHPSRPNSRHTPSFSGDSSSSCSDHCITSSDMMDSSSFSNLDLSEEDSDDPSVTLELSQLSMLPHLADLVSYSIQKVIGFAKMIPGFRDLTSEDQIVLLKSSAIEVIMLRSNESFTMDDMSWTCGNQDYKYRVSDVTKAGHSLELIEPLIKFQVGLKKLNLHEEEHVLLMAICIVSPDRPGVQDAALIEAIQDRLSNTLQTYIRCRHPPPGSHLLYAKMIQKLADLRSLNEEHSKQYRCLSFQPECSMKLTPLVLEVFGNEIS
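Two reagent solutions held at 4 deg C in the dark were dispensed, compounds pinned at 23 nl, and the mixture incubated 2 h at room temperature. Read-out: fluorescence polarization of VDR–SRC2-3 peptide binding.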
An asterisk follows results filed as active. On the % scale 0 is the no-effect control and ±100 the full control effect; potency means the concentration at half of the fitted maximal effect. Some of the compounds tested; rates above refer to the full screens.

What do the screens show for `O=C(NCC(=O)N(c1ccccc1)C(C(=O)NC1CCCCC1)c1cccnc1)c1cccs1` (configuration not stated)?
VDR inhibitor: -1%

How did COc1ccccc1NS(=O)(=O)c1cccc(C(=O)N/N=C(\C)c2ccc(-n3ccnc3)cc2)c1 do in these assays?
VDR inhibitor: 16%

How did C=CCNC(=S)Nc1ccc2cn[nH]c2c1 do in these assays?
VDR inhibitor: 1%

What do the screens show for `C#Cc1ccc([C@@H]2C=C(C(=O)NC3CC3)O[C@H](OCC)[C@H]2CCCO)cc1`?
VDR inhibitor: inconclusive

What do the screens show for `O=C(N=Nc1c(O)[nH]c2ccc(Br)cc12)c1ccccc1-n1cccc1`?
VDR inhibitor: -1%

Results for CCN(CC)CCCn1c(SCC(=O)NCC2CCCO2)nc2ccccc2c1=O (configuration not stated) ?
VDR inhibitor: 4%

What do the screens show for `O=C(NCCc1ccccc1)C(c1cccs1)N(C(=O)CCl)c1ccc(Cl)cc1` (configuration not stated)?
VDR inhibitor: inconclusive

Results for CC1=C(c2ccc(C)c(C)c2)S(=O)(=O)NC1=NCc1ccccc1Cl ?
VDR inhibitor: 5%

How did CCOc1ccc(/C=C/c2nc3ccccc3n2S(=O)(=O)c2cccc(Cl)c2)cc1 do in these assays?
VDR inhibitor: -1%

What do the screens show for `CCCCSC(=O)Nc1ccccc1`?
VDR inhibitor: -4%

How did Cc1[nH]n(-c2nc(-c3ccccc3)cc(=O)[nH]2)c(=O)c1CCO do in these assays?
VDR inhibitor: -10%

Results for CCc1nnc(SCC(=O)Nc2ccc3c(c2)OCO3)n1CC ?
VDR inhibitor: 2%

What do the screens show for `CNC(=O)N(O)C1N(/N=C/c2ccc(C)cc2)C(=S)SC1(C)C` (configuration not stated)?
VDR inhibitor: -6%

How did N=c1c(C(=O)NC2CCCCC2)cc2c(=O)n3ccccc3nc2n1Cc1ccccc1 do in these assays?
VDR inhibitor: -4%

How did N#CCOc1ccccc1P(=O)(c1ccccc1)c1ccccc1 do in these assays?
VDR inhibitor: -16%

Results for O=C1/C(=C/c2cccnc2)SC(=S)N1c1ccccc1 ?
VDR inhibitor: -2%

How did CCCCn1c(N)c(N(CCOC)C(=O)c2cc(-c3ccncc3)nc3ccccc23)c(=O)[nH]c1=O do in these assays?
VDR inhibitor: 3%

How did O=C(CSc1nnc(NC(=O)c2ccccc2[N+](=O)[O-])s1)NCC1CCCO1 (configuration not stated) do in these assays?
VDR inhibitor: -4%

How did CCC(C)[C@H](NC(=O)NCc1cccs1)C(=O)O (some centres not stated) do in these assays?
VDR inhibitor: inconclusive

Results for Cc1cccc(Cn2cc3c(=O)n(CC(=O)Nc4ccc(C)c(F)c4)nc-3c3cc(F)ccc32)c1 ?
VDR inhibitor: 9%

How did COc1ccccc1CNC(=O)C(=O)NCC1OCCCN1S(=O)(=O)c1cccs1 (configuration not stated) do in these assays?
VDR inhibitor: 19%

What do the screens show for `CSc1cccc(NC(=O)c2ccc(NC3=NC4CS(=O)(=O)CC4S3)cc2)c1` (configuration not stated)?
VDR inhibitor: -20%

How did CC(=O)N1CCC2(CC1)C(C#N)=C(N)Oc1c2sc2nc(C)cc(C)c12 do in these assays?
VDR inhibitor: 1%

Results for O=C(c1ccco1)N1CCN(S(=O)(=O)N2CCOCC2)CC1 ?
VDR inhibitor: 7%

How did COc1cc(CNc2ccc(N3CCN(C(C)=O)CC3)cc2)ccc1OCc1ccccc1 do in these assays?
VDR inhibitor: -8%

Results for O=C1Nc2ccccc2SC1c1ccccc1Cl (configuration not stated) ?
VDR inhibitor: -12%

What do the screens show for `N#CC(c1ccccn1)(c1ncc(C(F)(F)F)cc1Cl)N1CCOCC1` (configuration not stated)?
VDR inhibitor: -21%

What do the screens show for `COCC(=O)N1CCC2(CCCN(c3cccc(-c4ccccc4)c3)C2)CC1`?
VDR inhibitor: 50µM*

Results for COC(=O)CNC(=O)COC(=O)C(Cc1ccccc1)NC(=O)c1ccco1 (configuration not stated) ?
VDR inhibitor: 0%

What do the screens show for `COc1ccc(CCNC(=O)c2cc3ccccc3oc2=O)cc1`?
VDR inhibitor: -21%

Results for COc1cc(C#Cc2c(-c3cncn3C)n(C)c3ccc(-c4ccc(OC)nc4)cc23)cc(OC)c1 ?
VDR inhibitor: 15%

How did COc1ccc(C2N(c3ccccc3)C(=S)N3CCCN23)cc1 (configuration not stated) do in these assays?
VDR inhibitor: 1%

What do the screens show for `O=C(N1CCN=C1SCc1cccnc1)C12CC3CC(CC(C3)C1)C2`?
VDR inhibitor: -17%

How did CCOc1ccc(C(=O)NCC(=O)OCc2c(F)cccc2Cl)cc1OCC do in these assays?
VDR inhibitor: -9%

Results for CC(C)CCN1CCN(Cc2cccc3nonc23)CC1CCO (configuration not stated) ?
VDR inhibitor: 22%

How did CCCOc1ccc(/C=C/C(=O)N2CCN(c3ccccn3)CC2)cc1 do in these assays?
VDR inhibitor: 14%

How did COc1cc(OC)cc(C(=O)NCC(=O)OCC(=O)N2c3ccccc3NC(=O)C2(C)C)c1 do in these assays?
VDR inhibitor: 4%

Results for CCCCN(C(=O)c1oc2ccc(OCC)cc2c1C)c1c(N)n(CC(C)C)c(=O)[nH]c1=O ?
VDR inhibitor: -3%

Results for COc1cccc(-c2ccc3ncnc(NC4CCNCC4)c3c2)c1 ?
VDR inhibitor: -1%

What do the screens show for `COc1cccc(NC(=O)Cn2c(=O)n(-c3ccccc3)c(=O)c3oc4ccccc4c32)c1`?
VDR inhibitor: -6%

Results for CCC(C)[C@H](NC(=O)N1CC(=O)Nc2ccccc21)C(=O)N[C@H](Cc1ccccc1)C(=O)O (some centres not stated) ?
VDR inhibitor: 3%

How did Cc1cccc(C)c1NC(=O)CSCC(=O)c1ccc(O)c(O)c1 do in these assays?
VDR inhibitor: inconclusive

What do the screens show for `O=C(Cc1csc2ccccc12)NCc1ccccc1F`?
VDR inhibitor: -5%

What do the screens show for `CNC(=O)OCc1nc(SSC(C)(C)C)n(C)c1COC(=O)NC`?
VDR inhibitor: inconclusive

How did C/C(=N\NC(=O)c1ccoc1C)c1ccccc1 do in these assays?
VDR inhibitor: 5%

What do the screens show for `Cn1c(SCC(=O)NC2CCS(=O)(=O)C2)nc2ccccc21` (configuration not stated)?
VDR inhibitor: 10%

How did CN(CC(=O)Nc1ccccc1[N+](=O)[O-])Cc1ccc(Br)cc1 do in these assays?
VDR inhibitor: -1%

What do the screens show for `COc1ccc(Cc2nc(-c3ccc(-n4cccc4)cc3)no2)cc1`?
VDR inhibitor: 6%

Results for O=[N+]([O-])c1ccc(C2CNC(c3ccccc3)O2)cc1 (configuration not stated) ?
VDR inhibitor: 2%

How did CC(=O)OCc1ccccc1Sc1ccccc1C(=O)NCc1ccccc1 do in these assays?
VDR inhibitor: 13%

Results for O=C(NCc1ccccc1)/C(=C/c1ccc(OC(F)F)cc1)c1ccccc1 ?
VDR inhibitor: -10%

Results for Cc1cc(=O)cc(C)n1-c1ccc(O)cc1 ?
VDR inhibitor: 2%

Results for CS(=O)(=O)N1CCCC(C(=O)NCCCN2CCOCC2)C1 (configuration not stated) ?
VDR inhibitor: 5%

How did O=c1[nH]c(-c2ccccn2)nc2sc(-c3ccccc3)cc12 do in these assays?
VDR inhibitor: 79µM*

Results for Cc1nc(=O)c(-c2ccccc2)c(C)n1CC1CCCO1 (configuration not stated) ?
VDR inhibitor: -16%

What do the screens show for `O=C(NCCc1nnc2ccc(N3CCCC3)nn12)c1ccccc1`?
VDR inhibitor: 8%

Results for O=C(CCC(=O)c1ccccc1)NC1CCCN(Cc2ccccc2F)C1 (configuration not stated) ?
VDR inhibitor: inconclusive

What do the screens show for `CC(C)c1ccc(N(CCc2ccccn2)C(=O)C(C)(C)C)cc1`?
VDR inhibitor: -3%

Results for CC1(C)CC(=O)c2c(O)cc(OCC(=O)N3CCN(c4ccccc4)CC3)cc2O1 ?
VDR inhibitor: -4%

What do the screens show for `COc1ccc(CC(C#N)(CO)c2nc3ccccc3[nH]2)cc1` (configuration not stated)?
VDR inhibitor: -1%

Grouped by structure: those above with a furan ring, fused or not.
Results for O=C(c1ccco1)N1CCN(S(=O)(=O)N2CCOCC2)CC1 ?
VDR inhibitor: 7%

Results for COC(=O)CNC(=O)COC(=O)C(Cc1ccccc1)NC(=O)c1ccco1 (configuration not stated) ?
VDR inhibitor: 0%

Results for CCCCN(C(=O)c1oc2ccc(OCC)cc2c1C)c1c(N)n(CC(C)C)c(=O)[nH]c1=O ?
VDR inhibitor: -3%

What do the screens show for `COc1cccc(NC(=O)Cn2c(=O)n(-c3ccccc3)c(=O)c3oc4ccccc4c32)c1`?
VDR inhibitor: -6%

How did C/C(=N\NC(=O)c1ccoc1C)c1ccccc1 do in these assays?
VDR inhibitor: 5%

Continued:
What do the screens show for `Cc1ccc(C(=O)NCCc2nnc(SCC(=O)Nc3nc(-c4ccccc4)cs3)n2C)cc1`?
VDR inhibitor: 5%

What do the screens show for `COc1ccc(NC(=O)CCCC2CCCCC2)cc1S(=O)(=O)N1CCCCC1`?
VDR inhibitor: -3%

What do the screens show for `Cc1cnc(NC(=O)COc2ccccc2)s1`?
VDR inhibitor: -1%

What do the screens show for `Cn1c(NC(=O)c2cccs2)cc(=O)n(C)c1=O`?
VDR inhibitor: 6%

Results for O=C(C[n+]1cc(-c2ccc(F)cc2)n2c1CCC2)c1cccs1 ?
VDR inhibitor: -9%

Results for COc1cc(C(=O)NC2=NCCS2)cc(OC)c1OC ?
VDR inhibitor: 2%

What do the screens show for `COc1ccccc1CNc1nc(C)c(C(=O)N(C)C)s1`?
VDR inhibitor: inconclusive

What do the screens show for `CCCC(C)C(=O)OCC(=O)NCc1ccc(OC)c(OC)c1` (configuration not stated)?
VDR inhibitor: -1%

What do the screens show for `COc1cc2c(=O)n(CCc3ccccc3)c(=O)n(CC(=O)Nc3ccccc3)c2cc1OC`?
VDR inhibitor: -5%

How did Cc1ccc2nc(C(C)O)[nH]c2c1 (configuration not stated) do in these assays?
VDR inhibitor: 6%

What do the screens show for `O=C(Nc1ccccc1)OCCNC(=O)c1ccccc1`?
VDR inhibitor: 0%

How did O=C(/C=C/c1ccccc1)N1CCN(CC(O)COc2ccccc2)CC1 (configuration not stated) do in these assays?
VDR inhibitor: 3%

Results for Oc1c(C(c2ccc(Cl)cc2Cl)N2CCN(Cc3ccccc3)CC2)sc2nc(-c3ccco3)nn12 (configuration not stated) ?
VDR inhibitor: 5%

What do the screens show for `COc1cc(C(=O)NCC(=O)N/N=C(C)\C=C\c2ccccc2)cc(OC)c1OC`?
VDR inhibitor: -4%

How did COc1cccc(/C=c2/s/c(=C(\C#N)C(=O)N3CCOCC3)n(-c3ccccc3)c2=O)c1 do in these assays?
VDR inhibitor: -2%

Results for CC1(C)CC(=O)C(C=NCCCN2CCOCC2)=C(O)C1 ?
VDR inhibitor: -17%

How did CCN1CCN(C(c2cc3cc4c(cc3[nH]c2=O)OCO4)c2nnnn2C(C)(C)CC)CC1 (configuration not stated) do in these assays?
VDR inhibitor: -4%

Results for CCCCN(CCCC)C(=O)C1(P(=O)(c2ccccc2)c2ccccc2)CCC1 ?
VDR inhibitor: -3%

What do the screens show for `O=C1Nc2ccccc2C(O)(C(=O)NCc2ccc3c(c2)OCO3)N1c1ccccc1` (configuration not stated)?
VDR inhibitor: 9%

How did CCc1ccccc1N1CC(c2nc3ccccc3n2CCOc2ccc(Cl)c(C)c2)CC1=O (configuration not stated) do in these assays?
VDR inhibitor: -9%

How did O=C(Nc1ccc(O)cc1)c1ccccc1O do in these assays?
VDR inhibitor: -9%

How did Cc1nn(C(=O)c2ccc(Br)cc2)c(C)c1Sc1ccccc1 do in these assays?
VDR inhibitor: 19%

How did Cc1ccc(S(=O)(=O)N(C)C(=O)NC(=O)NS(=O)(=O)c2ccccc2)cc1 do in these assays?
VDR inhibitor: 15%

What do the screens show for `O=c1c2[nH]c3ccccc3c2ncn1CCC1=CCCCC1`?
VDR inhibitor: -8%

The last 2 entries of the part before lead into the next:
How did Cc1ccc(S(=O)(=O)N(C)C(=O)NC(=O)NS(=O)(=O)c2ccccc2)cc1 do in these assays?
VDR inhibitor: 15%

What do the screens show for `O=c1c2[nH]c3ccccc3c2ncn1CCC1=CCCCC1`?
VDR inhibitor: -8%

Results for CCCCN(CC)Cc1ccc(CNC(=S)Nc2c(C)cc(C)cc2C)o1 ?
VDR inhibitor: -6%

How did CCc1cc2cc3c(cc2nc1SCC(=O)Nc1nnc(C)s1)OCCO3 do in these assays?
VDR inhibitor: -2%

What do the screens show for `COc1ccc(CCNc2nc3ccccc3n3nnnc23)cc1OC`?
VDR inhibitor: -13%

Results for CCC(c1nnnn1Cc1ccco1)N(CCc1ccccc1)Cc1cc2ccc(OC)cc2[nH]c1=O (configuration not stated) ?
VDR inhibitor: -6%

How did COC(=O)CSc1nnc(CSc2nc(C)cc(C)n2)n1Cc1ccco1 do in these assays?
VDR inhibitor: 1%

How did Cc1ccc(C(=O)NNC(=O)CCN2C(=O)C3CCCCC3C2=O)cc1 (configuration not stated) do in these assays?
VDR inhibitor: -2%

How did COC(=O)C1=C(C)NC(C)=C(C(=O)OC)C1c1ccc(N(C)C)cc1 do in these assays?
VDR inhibitor: -14%

Results for Cc1[nH]c(C)c(S(=O)(=O)Nc2cccc(Cl)c2C)c1C(=O)N1CCCCC1 ?
VDR inhibitor: inconclusive

Results for Cc1ccc(-n2nc(C)c3c(C)cc(=O)n(CC(=O)Nc4cccc(C)c4C)c32)cc1 ?
VDR inhibitor: -2%

Results for O=C(O)c1ccc(CN(Cc2ccccc2)S(=O)(=O)c2ccc(Cl)cc2)cc1 ?
VDR inhibitor: inconclusive

Grouped by structure: those above with a nitro group on carbon (3)
How did O=C(CSc1nnc(NC(=O)c2ccccc2[N+](=O)[O-])s1)NCC1CCCO1 (configuration not stated) do in these assays?
VDR inhibitor: -4%

How did CN(CC(=O)Nc1ccccc1[N+](=O)[O-])Cc1ccc(Br)cc1 do in these assays?
VDR inhibitor: -1%

Results for O=[N+]([O-])c1ccc(C2CNC(c3ccccc3)O2)cc1 (configuration not stated) ?
VDR inhibitor: 2%
